Assay outcomes: PubChem, ICCB-Longwood Screening Facility, Harvard Medical School
BasE inh: inhibitors of Acinetobacter baumannii siderophore enzyme BasE; 84,000 compounds, 0.1% hits; purified BasE, fluorescence polarization binding displacement; inhibition, % (concentration not given with the values);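 active = both replicates above 25% with normal brightness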;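 note: 0% = negative plate control signal and 100% = positive plate control signal; stock transfer was 100 nL into about 30 µL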
KSHV LANA nucl: inhibitors of KSHV LANA binding to nucleosomes | FITC-LANA1-23 / chicken nucleosome fluorescence polarization; stronger effect = lower value | z-score (test concentration not listed) | 51,000 compounds, 0.3% hits | AID 720717;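 active = both repeat wells score below -2 in polarization z-score versus plate sample wells, excluding overly bright wells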;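 note: 100 nL library stock added to about 30 µL; numbers are from one replicate; some results filed as inactive read as strong as hits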
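Material: Purified chicken nucleosomes with FITC-labelled LANA N-terminal peptide (1-23) | Reagent: 50 nM FITC-LANA1-23 probe | Medium: TEN-BT buffer, pH 7.5 | Times: 10–45 min incubation at room temperature | Detection: Fluorescence polarization | Replication: Duplicates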
Starred values were filed as active, the others as inactive; . = not tested or not shown; & = joins results of further samples. A portion of the library. The share of hits here may be higher or lower than overall.

SMILES | BasE inh | KSHV LANA nucl
NC(=O)N/N=C1\CCCC1c1ccccn1 (stereo not given) | 2.7 | .
CCOC(=O)C(Sc1nnc(C(CC)N(C)C)n1Cc1ccccc1)c1ccccc1 (stereo not given) | -1.8 | .
c1ccc2c(c1)N1CCN2CC1 | 3.1 | 0.178
CSc1nnc(-c2ccncc2)n1-c1ccccc1C | 0.1 | .
CC1CCN(CCC(=O)Nc2ccc(Br)cc2)CC1 | -1.3 | 0.129
CC1CNc2c(cccc2S(=O)(=O)N[C@@H](CCCN=C(N)N)C(=O)N2CC[C@@H](C)C[C@@H]2C(=O)O)C1 (stereo not given in full) | . | -0.642&-0.0635
CC(C)(CNS(=O)(=O)c1ccccc1Br)N1CCOCC1 | 0.8 | .
O=C(NC1CCCCCC1)C1Cc2cc(Cl)ccc2O1 (stereo not given) | -2.5 | .
CCC(C)N1CC(C(=O)O)CC1=O (stereo not given) | -0.1 | -0.4
O=C(Cn1nc(-c2ccc3c(c2)OCCO3)ccc1=O)Nc1ccc(N2CCOCC2)cc1 | 3.3 | 0.253
C/C(N)=C(/C#N)C(=O)CSc1ncnc2scc(-c3ccccc3)c12 | -1.4 | .
CCOC(=O)c1c(C)nn(-c2cccc(C)c2C)c1C | . | -1.09
CC(C)c1ccc(NC(=O)C(c2ccccc2)N2CCN(C=O)CC2)cc1 (stereo not given) | 1.0 | 0.37
COc1ccc(S(=O)(=O)N2CCN(C(c3ccc(OC)c(OC)c3)c3nnnn3C3CCCCC3)CC2)cc1 (stereo not given) | -1.1 | 0.344
COC(CNC(=O)C1CCCN1C(=O)OCc1ccccc1)OC (stereo not given) | 0.4 | -0.653
CCN(C(=O)c1cc2c(=O)n3ccccc3nc2n1C)C1CCCCC1 | 0.3 | .
COc1cc(/C=c2\sc3nc4cc(C)c(C)cc4n3c2=O)c(Br)cc1OCC(=O)O | 2.7 | .
O=C(CCCOc1ccccc1)N1CCN(Cc2ccc3c(c2)OCO3)CC1 | 0.1 | .
CC(C#N)OC(=O)c1ccc(S(=O)(=O)N(C)C)cc1 (stereo not given) | -3.4 | .
Cc1cc(C)c(C)c(C(=O)COC(=O)c2cc(=O)[nH]c3ccccc23)c1C | 1.4 | .
Cn1nc(-c2ccc(F)cc2)nc2c(=O)n(C)c(=O)nc1-2 | 36.3 | -4.84*
CCCc1nc2ccccc2c(C(=O)OCC#N)c1CC | -1.0 | .
O=C(COC(=O)c1ccccc1NC(=O)c1ccco1)c1ccccc1 | 1.1 | .
CC1(C)CC(NCC(O)COCc2ccco2)CC(C)(C)N1 (stereo not given) | -1.2 | .
OCCSc1sc(=S)sc1SCCO | 2.3 | .
COc1ccccc1N1CCN(CC(=O)n2c3ccccc3c3ccccc32)CC1 | 2.2 | 0.776
CC(C)C12CN3CC(C(C)C)(CN(C1)C3(C)C)C2=O | -0.3 | -0.518
Cc1cc(NC(=O)COCc2cc(-c3ccc4c(c3)OCO4)on2)nn1Cc1ccc(Cl)cc1 | 3.5 | 0.728
CC1Cc2cc(S(=O)(=O)N3CCCC3)ccc2N1C(=O)C1CCC1 (stereo not given) | -0.2 | -0.749
CNC(=O)c1cc2c(n(-c3ccccc3)c1=O)CC(C)(C)CC2=O | -1.3 | 0.223

In the list so far, 2 contain two or more sulfur atoms.
SMILES | BasE inh | KSHV LANA nucl
C/C(N)=C(/C#N)C(=O)CSc1ncnc2scc(-c3ccccc3)c12 | -1.4 | .
OCCSc1sc(=S)sc1SCCO | 2.3 | .

Continuation.
SMILES | BasE inh | KSHV LANA nucl
Oc1cc2ccccc2cc1-c1nnc2n1-c1ccccc1SC2 | 0.6 | .
CCn1c(SCc2cccc(C)c2)nnc1C(C)NC(=O)c1ccccc1 (stereo not given) | -1.8 | 1.93
CCn1c(CNC(=O)Cc2c(F)cccc2Cl)nnc1SC | -1.0 | 0.147
CC(C)NC(=O)c1cc2c(ccc3ccccc32)o1 | -2.9 | -0.895
CCN(CC)S(=O)(=O)c1ccc2c(c1)nc(CCC(=O)OCN1C(=O)c3ccccc3C1=O)n2C | -0.7 | .
O=C(Cn1cc(S(=O)(=O)N2CCCC2)ccc1=O)c1c[nH]c2ccccc12 | 2.2 | .
CC(=O)OC1COC(N2CCc3ccccc32)C(OC(C)=O)C1OC(C)=O (stereo not given) | -1.2 | -0.947
CC1(C)CC(=O)C(=Cc2cn(CCC#N)nc2-c2ccccc2)C(=O)C1 | 1.6 | .
Cc1ccc(NC(=O)CN(C)C(=O)COc2cccc(-n3cnnn3)c2)cc1 | 0.6 | .
Cc1ccc(C2C(C#N)=C(N)OC3=C2C(=O)CC(C)(C)C3)s1 (stereo not given) | 0.4 | 0.727
NC(=O)COC(=O)C1CCCN(C2=NS(=O)(=O)c3ccccc32)C1 (stereo not given) | 1.8 | .
COc1cc(NC(=O)CS)cc(OC)c1 | -1.6 | 0.085
COC(=O)c1ccccc1NC(=O)c1oc2c(c1C)-c1[nH]ncc1CC2 | -2.0 | 0.947
COc1cccc(C(=O)Nc2ccc(Cc3ccc(NC(=O)c4cccc(OC)c4)cc3)cc2)c1 | -0.1 | .
O=C(Cn1cc(S(=O)(=O)CC(=O)N2CCc3ccccc32)c2ccccc21)N1CCCC1 | -0.9 | -0.845

Sorted by formula weight (smallest number first): some entries from above.
SMILES | BasE inh | KSHV LANA nucl
Cn1nc(-c2ccc(F)cc2)nc2c(=O)n(C)c(=O)nc1-2 | 36.3 | -4.84*
CCn1c(CNC(=O)Cc2c(F)cccc2Cl)nnc1SC | -1.0 | 0.147
CC1(C)CC(=O)C(=Cc2cn(CCC#N)nc2-c2ccccc2)C(=O)C1 | 1.6 | .
Cc1ccc(NC(=O)CN(C)C(=O)COc2cccc(-n3cnnn3)c2)cc1 | 0.6 | .
O=C(Cn1cc(S(=O)(=O)N2CCCC2)ccc1=O)c1c[nH]c2ccccc12 | 2.2 | .

(more compounds)
SMILES | BasE inh | KSHV LANA nucl
CS(=O)(=O)Nc1ccc(-c2cn3ccccc3n2)cc1 | -3.7 | 0.335
Cc1cc(C(=O)COC(=O)C2Cc3ccccc3CN2S(C)(=O)=O)c(C)n1-c1nccs1 (stereo not given) | -0.2 | .
O=C(NCC(c1cccs1)S(=O)(=O)c1ccc(Cl)cc1)C1CC1 (stereo not given) | -0.5 | -0.694
CCCS(=O)(=O)c1ccc(C(=O)Nc2ccc(Cl)cc2)cn1 | . | 0.0095
CC(C)(C)C(=O)NC1CCN(C(=O)NCc2ccccc2)CC1 | 1.0 | -0.281
CCNS(=O)(=O)c1ccc(-c2cc(C(=O)OCC)no2)s1 | -1.7 | 0.893
Nc1nc(-c2cc3c(cc2Br)OCCO3)cs1 | 4.2 | 0.418
O=C(CN(c1ccc2c(c1)OCCO2)S(=O)(=O)c1ccccc1)N1CCCCCC1 | 0.2 | 0.119
Cc1cc(=O)n(C)c(=O)n1CCCCCN1CCCC1 | 2.1 | 0.752
Cc1cccc(-n2c(SCCC#N)nnc2-c2ccc(Cl)cc2)c1 | 0.2 | .
CN(C)CCCNC1CS(=O)(=O)CC1O (stereo not given) | -0.9 | -1.23
COCc1cc(C)nc(Cl)c1C#N | -1.2 | .
CCCN1CCC(NC(=O)Cc2ccc(C)cc2)CC1 | -5.7 | 1.5
Cc1cc(C)nc(N/N=C/C2=C(N3CCOCC3)C(=C\c3ccccc3)/CC2)n1 | -0.3 | .
O=C(O)CCc1nnc2ccc(NCCCN3CCCC3=O)nn12 | -1.6 | 0.302
CC(C)OC(=O)c1cccc(C(=O)OC(C)C)n1 | 2.4 | .
Cc1cc(C(=O)CSc2nn3c(=O)c(C(C)(C)C)nnc3s2)c(C)n1C1CC1 | -3.4 | .
O=C(Nc1sc2c(c1C(=O)O)CCC2)c1cccnc1 | 1.6 | .
Cc1ccc(S(=O)(=O)N2CC=C(c3ccccc3)CC2)cc1F | . | -0.976
O=C1C2C(C(=O)N1CC1CCCO1)C1C=CC2C12CC2 (stereo not given) | 1.3 | -0.833
OC(CSc1nncn1-c1ccccc1)C(O)C(O)c1cnn(-c2ccccc2)n1 (stereo not given) | -4.4 | .
COc1ccc(NC(=O)C(C)Sc2ccccc2)cc1 (stereo not given) | 1.8 | 0.373
CSc1c(-c2ccccc2)nc2ccccc2c1C(=O)O | . | 2.25
O=C(O)CCCCN1C(=O)c2ccccc2C1=O | -0.2 | .
O=C(c1cnc2sccn2c1=O)N1CCN(c2ccccc2)CC1 | 1.8 | -0.502
Cc1cc(S(=O)(=O)NC2CCCCC2)ccc1OCC(=O)NCc1cccnc1 | -1.8 | 1.36
CC(C)OC(=O)Cn1nc(C(F)(F)F)c2c1CCCC2 | 2.1 | -1.07
O=S(=O)(c1cc(Cl)ccc1Cl)N1CCCCC1 | 0.4 | .
CCOc1nc(NCCN2CCOCC2)nc(NC(C)C)n1 | 0.2 | 0.844
O=C(CSc1nccc(=O)[nH]1)Nc1ccccc1Br | 2.5 | 0.112

Entries of single compounds, looked up by structure. Order of screens: BasE inh | KSHV LANA nucl
C/C(N)=C(/C#N)C(=O)CSc1ncnc2scc(-c3ccccc3)c12 is listed with -1.4 | .
CC(C)OC(=O)c1cccc(C(=O)OC(C)C)n1 is listed with 2.4 | .

Next part.
SMILES | BasE inh | KSHV LANA nucl
CCOC(=O)c1cc2sccc2n1CC(=O)c1ccc2c(c1)OCCO2 | -1.3 | 1.9
CN(CC(=O)N1CCCC1)S(=O)(=O)c1ccc(F)cc1 | -1.1 | -1.44
COc1ccc(S(=O)(=O)N2CN(Cc3ccccc3)c3nc4ccccc4nc32)cc1 | 0.7 | -0.65
O=C(CSC1=N/C(=C/c2ccco2)C(=O)N1c1ccccc1)Nc1nc2ccccc2s1 | -4.0 | 1.93
CC(C)CN=CC1=C(O)CC(C)(C)CC1=O | -0.4 | .
O[C@H]1[C@H](O)[C@@H](O)[C@@H]2O[C@@H]2[C@@H]1O | . | -0.641
CS(=O)(=O)N1CCc2cc(C(=O)CSc3nc4ccccc4o3)ccc21 | 0.8 | .
O=c1[nH]c(=O)n(-c2ccc(Cl)cc2)c(O)c1/C=N/n1cnnc1 | 0.9 | 2.21
COc1ccccc1NC(=O)C(C)n1nc(C(=O)O)c2ccccc2c1=O (stereo not given) | 0.0 | .
CSc1nc(-c2ccccc2)cc(-c2cccs2)c1C#N | 2.3 | .
O=C(Nc1ccc2[nH]c(=O)[nH]c2c1)c1ccccc1Br | -4.0 | 2.16
CC(C)N(C(=O)CN1CCN(Cc2ccccc2)CC1)C(C)C | -0.2 | -0.032
CN(C)/C=C/C(=O)c1sc(SCc2ccc(Cl)cc2)c2c1CC(C)(C)CC2=O | -0.4 | .
Cc1cc(C)nc(NS(=O)(=O)c2ccc(NC(=S)NC(=O)/C=C/c3ccco3)cc2)n1 | 1.3 | -0.179
CC(C)(C)NS(=O)(=O)c1ccc(N2C(=O)CCC2=O)cc1 | 0.8 | 0.747
Cc1cc(C)n2nc(C(=O)O)nc2n1 | -4.1 | 2.28
NCc1oc(-c2ccccc2)cc1C(=O)O | -1.1 | -1.44
O=C(OCc1cn2ccccc2n1)c1ccc2c(c1)C(=O)N(Cc1ccco1)C2=O | 0.4 | .
NCC1CCCN(Cc2ccccc2)C1 (stereo not given) | -2.3 | 0.913
Cc1ccccc1OCCn1c(C2CCCO2)nc2ccccc21 (stereo not given) | -1.2 | 0.478
CCCNC(=O)c1ccc(N2CC3CC(C2)c2cccc(=O)n2C3)c(NC(=O)Nc2ccc(Cl)cc2)c1 (stereo not given) | 2.6 | -0.059
OCCn1ncc2c(SC3CCCCC3)ncnc21 | 0.5 | 0.444
CN(C1CCCCC1)S(=O)(=O)c1ccc(-c2cc(C(F)(F)F)no2)s1 | 2.0 | .
CCc1ccc(N2CC(c3nc4ccccc4[nH]3)CC2=O)cc1 (stereo not given) | -7.4 | 0.758
Cc1cc(NC(C)C)n2nc(-c3ccccc3)nc2n1 | -5.3 | 1.8
COc1ccc(C(CN=Cc2c(O)[nH]c(=S)[nH]c2=O)N(C)C)cc1 (stereo not given) | 2.2 | .
Cc1cc(-c2ccccc2)nc2cc(C(=O)N3CCCCCC3)nn12 | 4.9 | -0.127
C[C@H](NC(N)=O)C(=O)NC1CCCc2ccccc21 (stereo not given in full) | -0.8 | .
Cc1nn(-c2ccccc2)c2sc(C(=O)N=Nc3c(O)[nH]c4ccccc34)cc12 | 1.0 | .
CSc1nn(-c2ccccc2)cc1-c1noc(-c2ccc(C(F)(F)F)cc2)n1 | 2.8 | -0.0885
CCOC(=O)N1CCN=C1SCc1cc(C)ccc1C | -0.9 | -0.954
COc1ccc2c(c1)CCC(C)N2S(=O)(=O)c1ccc(C2CNC(=O)C2)cc1 (stereo not given) | -1.7 | 0.763
Cc1[nH]n(-c2ccc(Cl)cc2)c(=O)c1C=O | 0.2 | 0.709
Clc1ccccc1N1CCN(CC2CC=CCC2)CC1 (stereo not given) | 0.0 | -1.08
CCO/N=C(/N)c1[nH]ncc1Br | -1.3 | 0.714
NS(=O)(=O)c1cccc(S(=O)(=O)c2ccc(Cl)c(Cl)c2)c1 | -0.9 | -0.449
O=C(Nc1cccnc1)c1c(O)c2ccccc2[nH]c1=O | 0.3 | 0.0285
COc1ccc(N2CCN(CCCNC(=O)C3CCC(=O)N3Cc3ccc(F)cc3)CC2)cc1 (stereo not given) | 0.1 | 0.757
